Ab BasE inh = inhibitors of Acinetobacter baumannii siderophore enzyme BasE; 84,000 tested, 0.1% active; purified BasE, fluorescence polarization binding displacement; inhibition, % (concentration not given with the values);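 active = both replicates above 25% with normal brightness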;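 note: 0% = negative plate control signal and 100% = positive plate control signal; stock transfer was 100 nL into about 30 µL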
LANA-nucl inh = inhibitors of KSHV LANA binding to nucleosomes; FITC-LANA1-23 / chicken nucleosome fluorescence polarization; active compounds read low; z-score (concentration not given with the values); 51,000 tested, 0.3% active; AID 720717;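 active = both repeat wells score below -2 in polarization z-score versus plate sample wells, excluding overly bright wells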;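 note: 100 nL library stock added to about 30 µL; numbers are from one replicate; some results filed as inactive read as strong as hits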
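test system = FITC-LANA peptide and chicken nucleosomes | amount = 240 nM purified chicken nucleosomes (480 nM peptide binding sites), final | reagent = 50 nM FITC-LANA1-23 probe | medium = TEN-BT buffer, pH 7.5 | doses = single compound addition by pin transfer, 100 nL per well | timing = 10–45 min, room temperature | detection = fluorescence polarization | repeats = duplicate plates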
Numbers without * were called inactive. This is a subset. The share of hits here may be higher or lower than overall.

CCN=c1sc(C(=O)Nc2ccccc2)c(C)n1CC was read as Ab BasE inh 0.0.
O=C(Cn1cnc(S(=O)(=O)N2CCCCC2)c1)N1CCc2ccccc21 was read as Ab BasE inh 1.0 and LANA-nucl inh 0.24.
Screening CCN1C=CC2=C(C#N)C(N)C(C#N)(C#N)C(c3ccccc3C(F)(F)F)C2C1 (stereo not given) returned Ab BasE inh 6.4 and LANA-nucl inh -1.2.
O=C(CC1SC(=Nc2ccccc2)N(C2CC2)C1=O)Nc1cccc(Cl)c1 (stereo not given) was read as Ab BasE inh 0.7.
`CC1(C)CC(=O)C(C=NCCN2CCN(CC(=O)Nc3ccccc3)CC2)=C(O)C1` gave Ab BasE inh -1.1 and LANA-nucl inh 1.2.
`COc1ccccc1/C=N/n1cnnc1SCC(C)(C)NS(=O)(=O)c1ccc(C)cc1` gave Ab BasE inh 0.9.
For CCn1c(C)nc2c(=O)oc3ccccc3c21 the results were Ab BasE inh 1.9.
Screening O=C(C1c2ccccc2Oc2ccccc21)N1CCC2(CC1)OCCO2 returned Ab BasE inh 0.9 and LANA-nucl inh 0.53.
COc1ccc(-c2ccc(CO)o2)cc1N was read as Ab BasE inh -0.1 and LANA-nucl inh -0.18.
For CC(=O)OCC1OC(n2c(Br)nc3c(N)ncnc32)C(OC(C)=O)C1OC(C)=O (stereo not given) the results were Ab BasE inh -2.6.
`C=CCn1c(C(C)O)nc2ccccc21` (stereo not given) gave Ab BasE inh 1.7 and LANA-nucl inh -0.49.
`COc1cccc(N=c2scc(-c3ccco3)n2CC2CCCO2)c1` (stereo not given) gave Ab BasE inh -2.0.
Fc1ccc(-n2ncc3c(N4CCc5ccccc54)ncnc32)cc1 was read as Ab BasE inh 2.0 and LANA-nucl inh -0.66.
Cc1ccc(-c2noc(CN(C(=O)Nc3ccccc3C)C(C)C)n2)cc1 was read as Ab BasE inh 0.4 and LANA-nucl inh 0.5.
Screening Cn1c(C(C(=O)NCC2CCCO2)N(C(=O)Cn2nnc3ccccc32)c2ccc3c(c2)OCO3)nc2ccccc21 (stereo not given) returned Ab BasE inh 1.6 and LANA-nucl inh -0.21.
O=C(NCCOc1ccc2c(c1)OCO2)C1CCN(C(=O)NC2CCCCC2)CC1 was read as Ab BasE inh 1.1 and LANA-nucl inh -0.98.
For CCOC(=O)c1cc(-c2cc3ccccc3o2)nn1CCC#N the results were Ab BasE inh -4.1.
For CCCCCCCCCCCCCCCC(=O)OCC(COP(=O)(O)O)OC(=O)CCCCCCCCCCCCCCC (stereo not given) the results were Ab BasE inh 0.7 and LANA-nucl inh -0.25.
Screening CCCN(c1ccc(F)cc1)c1nc(-c2ccc(OC)cc2)no1 returned Ab BasE inh 3.7 and LANA-nucl inh 0.25.
For CCn1c(=S)[nH]c2nc3c(cc2c1=O)COC(C)(C)C3 the results were Ab BasE inh 1.7 and LANA-nucl inh -0.17.
For Fc1ccccc1N1CCN(c2c3c(nc4ccc(Cl)cc24)CCC3)CC1 the results were Ab BasE inh 1.2 and LANA-nucl inh 0.98.
For CCSc1ccc(SC#N)s1 the results were Ab BasE inh 1.9 and LANA-nucl inh -0.89.
`Cc1ccc(Cc2nc(-c3ccc(Cl)cc3)cs2)cc1` gave Ab BasE inh 5.9.
COc1cc(OC)cc(C(=O)Nc2ccc(O)c(-c3nc4cc(C)c(C)cc4o3)c2)c1 was read as Ab BasE inh 1.6 and LANA-nucl inh -0.7.
For Cc1nc(C)c(C(=O)O)c(-c2ccc(Cl)cc2)c1C(=O)O the results were Ab BasE inh 1.0 and LANA-nucl inh 0.18.
Screening O=C(c1c[nH]c2ccccc12)C(F)(F)F returned Ab BasE inh 2.7 and LANA-nucl inh 0.82.
Screening CCCCCN1N=C(C)CC1=O returned Ab BasE inh -1.5 and LANA-nucl inh -0.13.
`CCOC(=O)c1c(N)c(C#N)n2c1CCC2` gave Ab BasE inh 3.1 and LANA-nucl inh 0.48.
Screening CN(CC(=O)NCc1cccs1)c1ccccc1 returned Ab BasE inh 0.8.
`O=C1CSCC(=O)N1Cc1cccc(C(F)(F)F)c1` gave LANA-nucl inh -1.1.
`COC(=O)c1ccc(COC(=O)c2cc(OC)cc(OC)c2)cc1` gave Ab BasE inh 0.0.
`O=c1ccc(Cl)nn1-c1ccccc1` gave Ab BasE inh 0.2 and LANA-nucl inh -0.37.
`Clc1ccc(CNc2ncnc3[nH]ncc23)c(Cl)c1` gave Ab BasE inh -0.1.
CC1CCc2c(sc3nc(CSc4nnc(-c5ccccc5)o4)[nH]c(=O)c23)C1 (stereo not given) was read as Ab BasE inh -4.3.
Screening CN(C)/C=C/C(=O)c1cccs1 returned Ab BasE inh 1.0 and LANA-nucl inh 0.5.
CN(C)S(=O)(=O)N1CCC(Oc2cccc(-n3cnnn3)c2)CC1 was read as Ab BasE inh 1.1 and LANA-nucl inh -0.29.
Cc1csc(SCc2cc(=O)c(OC(=O)c3ccc(S(=O)(=O)N4CCOCC4)cc3)co2)n1 was read as Ab BasE inh 0.6 and LANA-nucl inh -0.91.
C=CCN1C(=O)C(C)(C)S/C1=N\S(=O)(=O)c1ccc(C)cc1 was read as Ab BasE inh 1.0.
Screening CN(C)c1c(F)cc(C(=O)NC(=O)NC2=NCCS2)cc1F returned Ab BasE inh 1.7.
For O=C(CCCN1C(=O)CSc2ncccc21)NCCc1ccccc1 the results were Ab BasE inh 1.1 and LANA-nucl inh 0.57.
For O=C(COc1c(-c2ccco2)oc2ccccc2c1=O)NCCc1ccccc1 the results were Ab BasE inh -1.5 and LANA-nucl inh -0.74.
N#CC1=C(SCc2ccccc2)SC(CO)NC1=O (stereo not given) was read as Ab BasE inh 1.2 and LANA-nucl inh -0.49.
Screening CCN(CC(=O)NC1CCS(=O)(=O)C1)C(=O)/C=C/c1cccs1 (stereo not given) returned Ab BasE inh 1.7.
C=CCn1c(=O)[nH]c2c1c(=O)n(C)c(=O)n2C was read as Ab BasE inh 0.2 and LANA-nucl inh -0.11.
N=C1CC(=O)N=C2SC(C3CC3)=NN12 was read as Ab BasE inh 0.9.
`COc1ccc(C(=O)O/N=C2\C(=O)N(C)c3ccccc32)cc1` gave Ab BasE inh -0.5 and LANA-nucl inh -0.47.
Screening O=C1CCCN1c1ccc(S(=O)(=O)Nc2ccc3oc4c(c3c2)CCCC4)cc1 returned Ab BasE inh 0.9 and LANA-nucl inh 0.44.
`Cc1ccc(/C=C/C(=O)NC(c2ccc3c(c2)OCCCO3)C(C)C)o1` (stereo not given) gave Ab BasE inh -1.2.
For COc1ccc(C(=O)NCC2OCCc3ccccc32)cc1 (stereo not given) the results were Ab BasE inh -1.0.
For Cc1c(C)c(C)c(CNC(=S)NN)c(C)c1C the results were Ab BasE inh 0.2.
`COc1ccc(C2=CC(c3ccccc3)c3ccccc3O2)cc1OC` (stereo not given) gave Ab BasE inh 3.3.
Screening Cc1cc(N=Cc2c(O)n(-c3cccc(Cl)c3)c(=O)c3ccccc23)no1 returned Ab BasE inh -0.9.
CCc1ccc(NC(=O)/C(C#N)=C/c2cc(C#N)n(C)c2C)cc1 was read as Ab BasE inh -0.3.
Screening O=C(Cc1cccs1)Nc1c2c(nn1-c1ccccc1)CSC2 returned Ab BasE inh 0.5 and LANA-nucl inh -1.2.
CC1CCN(C(=O)CSc2nnnn2C2CC2)c2ccccc2S1 (stereo not given) was read as Ab BasE inh -0.8.
Screening COCC(C)NC(=O)c1ccc(OC)cc1OC (stereo not given) returned Ab BasE inh 0.6 and LANA-nucl inh -0.25.
`N#Cc1c(N)nc(SCC(=O)c2cc3ccccc3oc2=O)c(C#N)c1-c1ccc(O)cc1` gave Ab BasE inh 1.0 and LANA-nucl inh -0.32.
Cc1ccc(-c2nc3ccccc3[nH]2)cc1NC(=O)C(C)C was read as Ab BasE inh 0.4 and LANA-nucl inh -0.76.
`N#Cc1cccc(C(F)(F)F)c1` gave Ab BasE inh 1.0.
For NS(=O)(=O)c1cccc(S(N)(=O)=O)c1 the results were Ab BasE inh -1.2 and LANA-nucl inh 1.1.

A stretch from the list above:
`COc1ccc(C(=O)O/N=C2\C(=O)N(C)c3ccccc32)cc1` gave Ab BasE inh -0.5 and LANA-nucl inh -0.47.
Screening O=C1CCCN1c1ccc(S(=O)(=O)Nc2ccc3oc4c(c3c2)CCCC4)cc1 returned Ab BasE inh 0.9 and LANA-nucl inh 0.44.
`Cc1ccc(/C=C/C(=O)NC(c2ccc3c(c2)OCCCO3)C(C)C)o1` (stereo not given) gave Ab BasE inh -1.2.
For COc1ccc(C(=O)NCC2OCCc3ccccc32)cc1 (stereo not given) the results were Ab BasE inh -1.0.
For Cc1c(C)c(C)c(CNC(=S)NN)c(C)c1C the results were Ab BasE inh 0.2.
`COc1ccc(C2=CC(c3ccccc3)c3ccccc3O2)cc1OC` (stereo not given) gave Ab BasE inh 3.3.

(continued)
Screening O=C(NCc1ccc2c(c1)OCO2)NCc1ccc2c(c1)OCO2 returned Ab BasE inh 0.4 and LANA-nucl inh -0.7.
Screening C=CCn1c(SCC(=O)/C(C#N)=C(\C)N)nnc1-c1ccoc1C returned Ab BasE inh -2.1.
For S=C1NCN(C2CCCCC2)CN1 the results were Ab BasE inh 2.3.
For NNC(=O)c1ccc2c(=O)n3c(nc2c1)CCCCC3 the results were Ab BasE inh 1.5.
For FC(F)(F)c1nnc(Nc2cccnc2)s1 the results were Ab BasE inh 7.5.
For CC(C)(C)c1cc(CC(=O)O)cc(C(C)(C)C)c1O the results were Ab BasE inh 1.8 and LANA-nucl inh -0.41.
Screening C/C(=N\NC(=O)c1ccc(CN2CCOCC2)cc1)c1cccs1 returned Ab BasE inh 0.9 and LANA-nucl inh -0.62.
For COc1ccc(C(=O)N(Cc2ccc3c(c2)OCO3)C2CCCC2)c(OC)c1 the results were Ab BasE inh -1.8.
Screening O=C(CN1CCN(C(=O)C2COc3ccccc3O2)CC1)Nc1ccccc1 (stereo not given) returned Ab BasE inh -0.9 and LANA-nucl inh -0.79.
Screening Cc1cccc(N(C)S(=O)(=O)c2c(C)nc3sccn3c2=O)c1 returned Ab BasE inh 2.7 and LANA-nucl inh -1.3.
CC(=O)N(Cc1ccccc1)Cc1cn(-c2ccccc2)nc1-c1cc2ccccc2o1 was read as Ab BasE inh -2.0 and LANA-nucl inh 1.6.
For Cc1cccc(NC(=O)CSC2=C(C#N)C(c3ccco3)C3=C(CCCC3=O)N2)c1 (stereo not given) the results were Ab BasE inh -2.2.
`COCCNC(=O)Cn1c(C(=O)OC)ccc1-c1ccco1` gave Ab BasE inh -0.4 and LANA-nucl inh 0.8.
Screening CSc1ccc(CN(CCO)Cc2ccccc2)cc1 returned Ab BasE inh -2.0 and LANA-nucl inh 2.3.
`Clc1nccc2ccc(Br)cc12` gave Ab BasE inh -2.6 and LANA-nucl inh 2.7.
For Cc1c(C)c2c(c(C)c1O)CC[C@](C)(CCC[C@@H](C)CCC[C@@H](C)CCCC(C)C)O2 the results were Ab BasE inh -4.7 and LANA-nucl inh 1.6.
`CN=c1scc(C)n1/N=C/c1c(Cl)cccc1Cl` gave Ab BasE inh 1.7.
`CCCCN(C(=O)c1ccccc1)c1ccccc1` gave Ab BasE inh 0.4 and LANA-nucl inh -0.84.
For N#CC1=C(N)NC(SCC(=O)Nc2ccc(Br)cc2)=C(C#N)C12CCCCC2 the results were Ab BasE inh 4.6 and LANA-nucl inh 0.19.
CN(C)/C=N/N1CC(O)=C(c2nc3ccccc3s2)C1=N was read as Ab BasE inh 1.8.
Screening Cc1cccc(CCNC(=O)c2cc3c(C)nc4ccccc4c3o2)c1 returned Ab BasE inh -0.9 and LANA-nucl inh -0.14.
Screening CC(NC(=O)C1CCCN(C(=O)c2cc3sccc3n2C)C1)C12CC3CC(CC(C3)C1)C2 (stereo not given) returned Ab BasE inh -1.7 and LANA-nucl inh 0.91.
Screening Cc1nccn1-c1cc(C(C)C)c(C#N)c2nc3ccccc3n12 returned Ab BasE inh 1.7 and LANA-nucl inh -0.83.
For Cc1cc(NC(=O)CCn2ccc(C)n2)c2ccccc2n1 the results were Ab BasE inh 1.1 and LANA-nucl inh -0.98.
C=CCOc1ccc(/C=C/C(=O)N2CCN(S(=O)(=O)c3cccs3)CC2)cc1 was read as Ab BasE inh 0.2.
For O=C(CSc1ccccc1)Nc1cccc(C(=O)O)c1 the results were Ab BasE inh 6.7 and LANA-nucl inh 0.52.
O=C(C1CCCN1S(=O)(=O)c1cccc2nsnc12)N1CCN(Cc2ccc3c(c2)OCO3)CC1 (stereo not given) was read as Ab BasE inh 1.6.
COC(=O)C1=C2C(=O)NCCN2C2=C(C(=O)CCC2)C1c1ccc(OC)c(OC)c1 (stereo not given) was read as Ab BasE inh 1.4 and LANA-nucl inh -0.69.
For OC(C#CCN1CCCC1)(c1ccccc1)C1CCCC1 (stereo not given) the results were Ab BasE inh -0.1 and LANA-nucl inh 0.18.
For Cc1scc(-c2ccccc2)[n+]1CCO the results were Ab BasE inh 0.2 and LANA-nucl inh 0.74.
NC(=O)c1c(NC(=O)COC(=O)c2ccc(Br)o2)sc2c1CCC2 was read as Ab BasE inh 1.4.

2 compounds picked at random from the list so far, as already listed:
Screening Cc1nccn1-c1cc(C(C)C)c(C#N)c2nc3ccccc3n12 returned Ab BasE inh 1.7 and LANA-nucl inh -0.83.
Screening Cc1cccc(CCNC(=O)c2cc3c(C)nc4ccccc4c3o2)c1 returned Ab BasE inh -0.9 and LANA-nucl inh -0.14.
